# Screening results from PubChem BioAssay.
# TRPML1 inh: blocks the human TRPML1 channel; Q9GZU1; TRPML1-inducible cells, Ca2+ dye fluorescence, FDSS; hits give low values; inhibition of EC80 agonist-evoked calcium signal; activity change, negative = inhibition, % (no concentration beside the values); 390,000 compounds, 0.02% hits; AID 624415; in the data active means activity change below about -50%; inconclusive means about -30% to -50%; inactive means above about -30%;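 also: stimulus is agonist 54-4 at its EC80 concentration; % is scaled to controls: 0 for no effect and ±100 for the full control effect; compound concentration not given in the record; the text of the record puts the active cut at -80%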
# Target sequence (Q9GZU1 whole entry, looked up): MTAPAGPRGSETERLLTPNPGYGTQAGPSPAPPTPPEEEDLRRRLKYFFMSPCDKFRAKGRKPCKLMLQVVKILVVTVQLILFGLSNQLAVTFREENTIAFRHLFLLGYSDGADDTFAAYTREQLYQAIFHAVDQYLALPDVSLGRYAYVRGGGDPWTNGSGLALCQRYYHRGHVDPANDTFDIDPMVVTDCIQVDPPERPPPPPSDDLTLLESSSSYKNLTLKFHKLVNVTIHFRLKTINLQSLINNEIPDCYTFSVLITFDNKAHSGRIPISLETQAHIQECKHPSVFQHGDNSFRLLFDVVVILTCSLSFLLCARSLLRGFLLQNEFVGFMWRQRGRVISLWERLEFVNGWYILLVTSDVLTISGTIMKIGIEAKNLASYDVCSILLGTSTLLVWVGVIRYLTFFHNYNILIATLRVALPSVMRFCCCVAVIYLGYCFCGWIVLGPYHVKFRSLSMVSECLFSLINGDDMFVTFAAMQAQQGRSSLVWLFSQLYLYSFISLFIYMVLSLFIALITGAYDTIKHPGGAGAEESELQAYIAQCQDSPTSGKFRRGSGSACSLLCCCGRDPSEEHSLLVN
#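 Tet-induced TRPML1-DL cells loaded with Ca8 no-wash calcium dye were read kinetically on FDSS. Compound addition was followed by EC80 agonist 54-4 (4 uM final); inhibition was read over 110 s.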
# Sfp PPTase inh: Sfp phosphopantetheinyl transferase inhibition; Q9F4F7; Biochemical Sfp PPTase activity, qHTS; Potency, µM, for inactives: max response, negative = inhibition, usual class: inhibitors; 310,000 compounds, 3.5% hits; AID 1490; active = well fitted inhibition curve with a large enough effect; inconclusive = small, poorly fitted or top-dose-only effect, or another doubt; inactive = no such curve, though single readings can be large or run the other way;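 also: the enzyme is Sfp with the accession as filed and its product quenches rhodamine fluorescence; potency is read from the fitted curve at half-maximal effect; 0% = enzyme reaction without inhibitor and -100% = no enzyme wells; top concentration of the series not given in the record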
#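 Buffer: 50 mM Hepes-Na pH 7.6, 10 mM MgCl2, 0.01% Nonidet P-40, 0.01% BSA. Enzyme 15 nM, pre-exposed to compound 15 min; substrates then added and fluorescence change tracked over 30 min.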
# TRPV1 PAM: enhances activation of the human vanilloid receptor TRPV1 | Q8NER1 | potentiation, % at 8.33 µM | 320,000 compounds, 0.02% hits | TRPV1-expressing cells, Fluo-8 calcium influx, capsaicin EC20 potentiation; host cell line not named in the record; control for the full effect not named in the record; active means potentiation above 80%; inconclusive means 30% to 80%; inactive means below 30%; also: 0% is about no effect
#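 Cells expressing TRPV1 were dye-loaded with Fluo-8 and read kinetically: 10 s baseline, 3 min after compound (agonist portion), then 2 min after EC20 capsaicin (allosteric enhancer portion). Calcium-bound dye fluorescence at 480/520 nm.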
# Menin-MLL FL inh: menin-MLL binding inhibition, fluorescein peptide; Fluorescence polarization, fluorescein-MLL peptide displacement from menin; FP activity change, % at 61.4 µM; 290,000 tested, under 10 active; AID 1766; inconclusive = falling polarisation curve, or a change in total fluorescence; inactive = total fluorescence flat and polarisation flat or rising; no compound was filed as active; the % refers to the polarisation; negative = inhibition;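 also: % of control where 0% means no effect; inhibitors lower the polarisation; unlabelled MLL peptide was the positive control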
# ClpP mod: qHTS Assay for Activators of ClpP | ATP-dependent Clp protease proteolytic subunit (Bacillus subtilis (strain 168)), P80244 | purified B. subtilis ClpP, FRET peptide cleavage, 20 min | Potency, µM (series often up to 57.5 µM), for the others: at the highest dose activity change, negative = active | 340,000 compounds, 1.9% hits; active = well fitted falling curve with a large enough effect; inconclusive = small, poorly fitted or top-dose-only effect; inactive = no such curve, though single readings can be large or run the other way; also: potency is read from the fitted curve at half-maximal effect; the source files actives as falling curves though it sought activators and does not explain the sign; nearly all actives have a fitted effect of over 65% in size; many hits overshoot -100%
# Target sequence (P80244 whole entry, looked up): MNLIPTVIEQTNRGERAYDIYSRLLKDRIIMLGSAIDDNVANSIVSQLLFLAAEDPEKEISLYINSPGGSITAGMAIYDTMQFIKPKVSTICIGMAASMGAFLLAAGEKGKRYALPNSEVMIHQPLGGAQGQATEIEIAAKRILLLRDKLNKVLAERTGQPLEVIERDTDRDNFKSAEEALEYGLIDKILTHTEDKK
#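 Purified B. subtilis ClpP, 10 microg/mL final in Tris/HCl pH8 with KCl, BSA, glycerol and Tween-20, cleaved an Abz/nitrotyrosine-quenched decapeptide. Fluorescence (ex 320, em 430) was read at 0 and 20 min at room temperature. Delta was normalized to 5.8 microM ADEP and DMSO/no-enzyme controls.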
# TRPML1 agonist: agonists of human TRPML1 channel; activation, % (concentration not given with the values); AID 624414; TRPML1-expressing cells, Ca2+ dye fluorescence, FDSS; host cell line not named in the record; reference of the full effect not given here; Q9GZU1; 410,000 compounds, 0.12% hits; in the data active = activation above about 50%; inconclusive = about 30% to 50%; inactive = below about 30%; also: 0% is about no effect; the text of the record puts the active cut at 80%
#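 Cells: TRPML1-DL, 1X Tet inducer, ~16 h at 37 degrees C/5% CO2. Dye: ABD Ca8 no-wash + quencher, 45-90 min RT. Read: 10 s baseline, compound add, 110 s agonist phase; 54-4 EC80 (4uM final), 110 s antagonist phase.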
# PINK1 modulator: PINK1 expression modulation. Potency, µM (top dose mostly 76.6 µM), for the others: top-dose activation (PINK1 increase), actives largely listed as activators. AID 624263. PINK1 immunofluorescence, high-content cytometry, 24 h. 410,000 compounds, 0.2% hits; active = well fitted activation curve with a large enough effect; inconclusive = small, poorly fitted or top-dose-only effect; inactive = flat fitted curve, though single readings scatter; cell line not stated here;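 also: potency is read from the fitted curve at half-maximal effect; % of control where 0% means no effect; nearly all actives have a fitted effect of over 65% in size; a mitochondrial uncoupler was the plate control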
#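 A stable cell line was treated with compounds at 5 concentrations for 24 hours, with CCCP as control. PINK1 levels and mitochondrial localization were measured by immunofluorescence with mitochondrial, cell and nuclear markers after fixation, read by laser-scanning cytometry.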
# Numbers without * were called inactive; u = inconclusive; x = not tested or not shown; & = joins results of further samples; [ ] = another dose, or the depositor's remark. This is a random part of the collection. Share with any hit: about 4.4%.
SMILES,TRPML1 inh,Sfp PPTase inh,TRPV1 PAM,Menin-MLL FL inh,ClpP mod,TRPML1 agonist,PINK1 modulator
Cc1ccc(NC(=O)CC2SC(=O)NC2=O)cc1 (configuration not stated),17,-14%,0,2.0,-3.4%,0.7,1.2%
O=S(=O)(c1ccccc1)c1ccccc1/C=N\O,-1,5%,-13,0.1,-2.0%,0.5,-0.4%
Cc1ccccc1OC(C)C(=O)N1CCN(c2ccccn2)CC1 (configuration not stated),2,7%,-10,x,4.0%,-0.4,-1.0%
CCN1C(=O)c2cccc3c(NC(=O)c4ccccc4)ccc1c23,2,1%,-32,1.5,1.7%,-0.4,4.0%
Oc1[nH]c2ccccc2c1C=NCC1CCCO1 (configuration not stated),u,-2%,-30,-3.6,-4.2%,0.3,-0.1%
CC(C)c1ccc(-c2noc(C3CCCN(C(=O)c4ccc(F)cc4F)C3)n2)cc1 (configuration not stated),1,12%,12,-3.0,-1.4%,-0.4,-4.3%[38.3 µM]
Cc1cc(SCNC(=O)c2ccccc2)ncn1,19,25µM*,4,4.2,0.4%,0.3,x
CCCN(C(=O)CN1C(=O)NC2(CCCCCC2)C1=O)C1CCS(=O)(=O)C1 (configuration not stated),7,6%,-8,-5.6,0.2%,0.1,-1.0%
Cc1ccc(SCCCCN2CCNCC2)cc1,17,50µM*,23,2.4,-0.9%,6.7,-0.7%
CCN=C1Sc2nc3ccc(OCC)cc3cc2CN1CCOC,23,9%,-3,-1.5,u,3.7,-3.5%
CCOC(=O)c1ccc2c(c1)sc(=NC(=O)c1ccco1)n2CCOC,u,2%,20,6.3,u,1.0,15%
CC(NC(=O)CSc1n[nH]c(N)n1)c1ccccc1 (configuration not stated),5,8%,0,-0.6,x,1.3,-0.2%
COCCCNCC(=O)Nc1sc(C)c(C)c1C(=O)OC,-5,u,-9,5.8,-0.2%,-0.9,-1.6%
CCN(CC)CCCNc1ccc(-c2nnc(-c3ccc(OCC(C)C)cc3)o2)cn1,1,5%,7,x,3.6%,0.0,-1.7%
CN(C)C(=O)CSC1c2ccccc2C(=O)N1c1ccccc1 (configuration not stated),-7,5%,x,u,-3.0%,0.5,4.8%[38.3 µM]
C[C@@H](CSc1ccc(Br)cc1)CN1CC[C@H](C(C)(C)C)CCC1=O,37,x,-7,x,0.1%&-17%,2.0&2.3,-0.5%
Cc1nn(-c2ccccc2)c(Cl)c1/C=C1\SC(=S)NC1=O,-13,u,13,35[activator],-0.1%,0.7,x
Cc1cccc(S(=O)(=O)C(C#N)c2nc3ccccc3nc2N2CCOCC2)c1 (configuration not stated),18,13%,17,4.2,-5.0%,1.9,3.4%[38.3 µM]
Cc1cccc(NC(=O)c2cccc(NC3=NC4CS(=O)(=O)CC4S3)c2)c1 (configuration not stated),-6,1%,-4,-4.7,-0.2%,-0.2,-0.2%
Cc1nn(-c2ccccc2)c(OC(=O)c2ccc(F)cc2)c1S(=O)(=O)c1ccccc1,15,x,x,x,-1.1%,0.0,1.8%
CCC(CC)C(=O)N=C1SC2CS(=O)(=O)CC2N1CCc1ccc(OC)c(OC)c1 (configuration not stated),-5,14%,-21,0.2,-1.1%,-0.7,-2.9%
CN(C)C(=O)CSc1cccc2cccnc12,-12,-21%,0,0.3,20µM*,-0.2,-0.1%
CCCCOCCCNC(=O)C[C@@H]1C[C@@]2(C(=O)OCC)CCC=C2N(CCC2=CCCCC2)C1=O,x,x,x,x,-4.5%,-0.7,-1.3%
O=C(c1ccc(F)cc1F)N1CCN(c2ccccn2)CC1,23,15%,2,-5.9,x,-0.7,-1.3%
COc1ccc(NC(=O)CSc2ncc3c(n2)-c2cc(Cl)ccc2N(Cc2ccccc2F)S3(=O)=O)cc1,0,x,x,x,27%,-0.6,8.2%
Cc1ccc(NC(=O)Cn2nc(C(=O)O)c3ccccc3c2=O)cc1S(=O)(=O)N1CCOCC1,16,x,-5,x,1.0%,-1.7,1.0%
CCn1c(=N)n(CC(O)COc2ccc(C)cc2)c2ccccc21 (configuration not stated),29,25%,-12,0.5,x,0.1,1.7%
O=C(Nc1cccc(OC(F)(F)F)c1)C1Cc2c(-c3cccc(F)c3)ccnc2O1 (configuration not stated),x,x,x,x,-28%,-0.6,17%
CCN(CC)CCNC(=O)c1cc2c(=O)n(CC)c3ccccc3c2s1,1,11%,-3,-1.4,x,-0.2,1.4%
Cc1c(Cl)cnc(NC(=O)COC(=O)C(NC(=O)c2ccco2)C(C)C)c1Cl (configuration not stated),1,-21%,4,3.3,-5.0%,-1.2,0.3%
COc1ccc(N2CCN(C(=O)c3cccc(NS(=O)(=O)c4cccc(F)c4)c3)CC2)cc1,5,19%,26,-0.4,-1.9%,2.0,2.4%
CCCN1CCN(C(=O)c2cc3c(s2)-c2ccccc2OC3)CC1,-1,13%,-5,0.7,4.0%,1.1,5.1%
CC(C1SC(=S)NC1=O)C1SC(=S)NC1=O (configuration not stated),17,x,x,x,-0.1%,0.5,2.1%
COc1cc(CNC(=O)c2cc(-c3cc(OC)ccc3Cl)n[nH]2)cc(OC)c1,x,x,x,x,-0.4%,-0.2,0.8%
O=C(Nc1cccc(Cl)c1)Nc1ccc(Br)cc1F,16,2%,-20,-2.9,-8.6%,1.6,16%
CC(=O)c1ccc(-c2cnc3c(NC=O)cc(-c4ccc(C(=O)NC5CC5)cc4)cn23)cc1,x,x,x,x,u,-0.5,8.7%
CCOCCCN(C(=O)c1snc(C(N)=O)c1N)C(C(=O)NCCC(C)C)c1ccc(F)cc1 (configuration not stated),x,2%,-9,-2.4,u,x,0.7%
CCCn1c2ccccc2c2cnn(CC(=O)N(CCCOC)Cc3ccco3)c(=O)c21,-9,x,x,x,5.4%,3.4,2.9%
Cc1ccnc(NS(=O)(=O)c2ccc(NC(=O)C3CCCCC3)cc2)n1,-12,1%,4,-0.5,-0.6%,1.0,x
CCc1nnc(NC(=O)CSc2nnc(CNc3ccc(Cl)cc3)o2)s1,-10,-3%,10,2.2,-1.8%,0.6,-1.9%
COc1cc(C2c3c(oc4ccccc4c3=O)C(=O)N2CCN2CCOCC2)cc(OC)c1OC (configuration not stated),-6,17%,21,0.6,0.8%,-0.2,-0.1%
COC(=O)N/N=C\c1c(C)[nH]n(-c2ccccc2)c1=O,26,-18%,2,-0.2,x,-0.5,0.2%
O=C(O)c1ccc(N2C(=O)CC(SC(=NCc3ccc4c(c3)OCO4)Nc3ccccc3)C2=O)cc1 (configuration not stated),19,6%,24,0.9,0.1%,0.2,1.6%
C=CCn1c(SC(C)C(=O)NC2CC2)nnc1-c1ccoc1C (configuration not stated),11,x,-3,x,1.1%,3.3,0.6%
CC(C)COC(=O)C(C)Nc1n[nH]c(=S)[nH]c1=O (configuration not stated),-1,22%,9,-3.5,x,1.0,1.1%

# Brought forward from above: three compounds, followed by the next part.
SMILES,TRPML1 inh,Sfp PPTase inh,TRPV1 PAM,Menin-MLL FL inh,ClpP mod,TRPML1 agonist,PINK1 modulator
O=C(O)c1ccc(N2C(=O)CC(SC(=NCc3ccc4c(c3)OCO4)Nc3ccccc3)C2=O)cc1 (configuration not stated),19,6%,24,0.9,0.1%,0.2,1.6%
C=CCn1c(SC(C)C(=O)NC2CC2)nnc1-c1ccoc1C (configuration not stated),11,x,-3,x,1.1%,3.3,0.6%
CC(C)COC(=O)C(C)Nc1n[nH]c(=S)[nH]c1=O (configuration not stated),-1,22%,9,-3.5,x,1.0,1.1%
CCOC(=O)C1(CCc2ccccc2)CCN(C(=O)CN2CCOC2=O)CC1,-3,2%,-7,3.2,x,-0.1,-0.1%
O=C(O)CC(c1ccccc1)c1ccc2c(c1)OCO2 (configuration not stated),-5,x,x,x,-2.1%,-0.9,0.8%
O=C(NCc1ccco1)c1ccc2ccccc2c1,-7,-23%,6,-2.5,-11%,0.8,6.5%[38.3 µM]
O=S(=O)(c1cccc(C(F)(F)F)c1)N1CCC(c2nc3ccccc3[nH]2)CC1,-3,15%,-6,6.0,x,1.2,7.6%
COC(=O)COc1ccsc1C(=O)OC,-9,6%,5,0.3,-1.3%,2.6,7.0%[38.3 µM]
CCn1cc(C(=O)NC2CCC(C)CC2)c(=O)c2cc(S(=O)(=O)N3CCCCC3)ccc21 (configuration not stated),x,-9%,20,3.7,x,x,x
Cc1cc(C)c(C#N)c(N2CCN(C(=O)C3COc4ccccc4O3)CC2)n1 (configuration not stated),3,x,-28,x,4.2%,0.5,1.7%
COc1ccc(NS(=O)(=O)c2ccc3c(c2)Cc2ccccc2-3)cn1,-4,71µM*,-2,-9.4,-1.3%,1.4,5.8%[38.3 µM]
COc1ccc(NC(=O)C2c3ccccc3OCC(=O)N2Cc2ccc3c(c2)OCO3)cc1 (configuration not stated),x,x,x,x,0.3%,-0.8,-1.2%
COCC(=O)N1CCC2(CC1)CCN(C(=O)Nc1cccc(C#N)c1)CC2,x,-9%,x,-29,x,x,-0.6%
CCn1c(=S)[nH]c2cc(C(=O)OC)ccc2c1=O,-1,16%,-5,u,3.1%,0.2,0.3%
CC(=O)N1CCc2cc(Br)cc(S(=O)(=O)CCC(=O)N3CCN(c4ccccc4)CC3)c21,-23,x,x,x,-0.8%,-0.3,2.9%
COc1ccc(CCNC(=O)c2ccnc(C(C)(C)C)c2)cc1OC,-8,x,x,x,-2.4%,-0.4,3.5%
CNC(=S)N/N=C/c1cc(C)n(-c2ccc(Cl)c(Cl)c2)c1C,9,-8%,6,-0.8,-2.5%,-0.2,-0.5%
Cc1cnc(CNc2ccnc(-c3cccnc3)n2)cn1,x,-12%,x,-6.7,x,x,0.3%
CNc1c(NS(=O)(=O)c2ccc(C3CCCCC3)cc2)c(=O)oc2ccccc12,9,-2%,9,0.4,x,0.0,3.6%
Cc1ccc2cc(CN(Cc3ccccc3)Cc3nnnn3C3CCCC3)c(=O)[nH]c2c1,5,-2%,u,-0.4,-2.2%,0.9,x
